Assay outcomes deposited in PubChem BioAssay by several laboratories.
PKD1 inh = inhibitors of human PKD1 kinase; AID 797; inhibition, %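 (about 10 µM by stock and volumes)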; Q15139; 200,000 compounds, 0.056% hits; PKD1 kinase fluorescence polarization assay;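 active means inhibition of 50% or more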;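 further: controls were vehicle for no effect and a reference inhibitor for full effect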
GALR2 ag = agonists of human galanin receptor 2 (GALR2) | AID 803 | O43603 | activation, %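 (tested at 5 µM)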 | GALR2-expressing cells, agonist activation read-out | 140,000 compounds, 0.48% hits;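 active means above mean plus 3 SD of all compounds, about 5% in these data, not always enough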;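 further: 0% = vehicle buffer wells and 100% = reference agonist at full effect; tested in CHO reporter cells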
Target sequence (O43603 whole entry, looked up): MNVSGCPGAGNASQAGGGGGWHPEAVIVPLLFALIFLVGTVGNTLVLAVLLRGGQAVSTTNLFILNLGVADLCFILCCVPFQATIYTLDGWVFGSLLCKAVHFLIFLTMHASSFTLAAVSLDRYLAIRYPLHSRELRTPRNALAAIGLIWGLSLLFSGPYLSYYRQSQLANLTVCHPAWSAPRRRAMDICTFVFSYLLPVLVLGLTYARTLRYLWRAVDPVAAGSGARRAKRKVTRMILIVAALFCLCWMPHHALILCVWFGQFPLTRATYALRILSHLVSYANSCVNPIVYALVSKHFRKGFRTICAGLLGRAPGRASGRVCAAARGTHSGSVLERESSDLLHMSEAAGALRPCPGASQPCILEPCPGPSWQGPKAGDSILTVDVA
INS promoter inh = TRM-6 insulin promoter activity inhibition; TRM-6 cells (human fetal islet line), insulin promoter-eGFP reporter, imaging; reporter expression induced with tamoxifen; inhibition, % at 2 µM; 130,000 compounds, 0.9% hits; AID 1273;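 active means inhibition above the mean plus 3 SD, with well images judged a real hit on visual review, cut at about 60% in these data, passing the limit was not always enough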
RGS16-Gao = regulators of human RGS16-Galphao interaction; 220,000 compounds, 0.38% hits; bead-based flow cytometry RGS16-Galphao binding, fluorescence; actives lie on both sides; binding response (% of control), % at 10 µM;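 active means below 25% or above 175%, edge rows of some plates excepted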;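 further: Galphao activated by GDP with aluminum fluoride before binding; 100% = wells without compound and 0% = beads without RGS; some results beyond the cut were filed as inactive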
Target sequence (O15492 whole entry, looked up): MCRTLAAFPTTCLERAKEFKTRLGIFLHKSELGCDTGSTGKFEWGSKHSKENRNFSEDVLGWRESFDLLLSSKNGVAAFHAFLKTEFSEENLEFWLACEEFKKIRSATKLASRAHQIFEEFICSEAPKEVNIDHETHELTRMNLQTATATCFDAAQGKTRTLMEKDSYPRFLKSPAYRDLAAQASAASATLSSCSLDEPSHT
Target sequence (P09471 whole entry, looked up): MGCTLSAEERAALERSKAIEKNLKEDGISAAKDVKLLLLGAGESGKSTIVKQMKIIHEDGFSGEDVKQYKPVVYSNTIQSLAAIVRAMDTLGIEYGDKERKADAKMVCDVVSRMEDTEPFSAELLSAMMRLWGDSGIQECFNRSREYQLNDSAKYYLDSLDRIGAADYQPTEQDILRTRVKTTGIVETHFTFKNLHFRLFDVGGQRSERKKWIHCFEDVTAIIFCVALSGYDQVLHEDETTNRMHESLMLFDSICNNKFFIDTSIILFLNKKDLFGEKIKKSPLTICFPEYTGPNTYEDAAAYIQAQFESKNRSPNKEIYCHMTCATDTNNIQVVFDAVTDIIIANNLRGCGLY
HSV replic up = HSV replication enhancement; HSV replication augmentation in cells, fold increase; AID 1956; maximum fold increase; 220,000 compounds, 0.005% hits;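 active means peak rise of 1.5-fold or more in the series; tested in PC3 cells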;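 further: first round at 10 µM; read as green reporter fluorescence; hits show the peak of a series up to 25 µM; 1 = signal of infected wells without compound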
INS promoter inh cell count = also measured in INS promoter inh; calls as there; normalized cell count, %; measured here: cell count, toxicity; reference of the scale not given here;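 cells exposed to compound for 48 h; stained nuclei by imaging scaled within each plate; lower means fewer cells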
HSV replic up primary fold = second read-out of HSV replic up, no call of its own (marks repeat the call); fold increase; compound at 10 µM; measured here: primary screen fold increase 10 uM; tested in PC3 cells;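 GFP signal in the first replicate; 1 = infected wells without compound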
* marks the source's active call; other numbers are inactive results; i = inactive; x = no result given. An unsorted share of the library, and some 1.3% of all compounds hit somewhere here.

no.	Molecule	PKD1 inh	GALR2 ag	INS promoter inh	INS promoter inh cell count	RGS16-Gao	HSV replic up	HSV replic up primary fold
1	CCOc1ccc(Br)cc1S(=O)(=O)Nc1nc(CN2CCOCC2)nc2sc(C)c(C)c12	1	-1.0	-71	53	103	i	0.82
2	CCCCOC(=O)c1ccc(NC(=O)CSC2=Nc3ccccc3C3CC=NN23)cc1 (stereo unspecified)	2	-1.9	x	x	60	i	0.89
3	Fc1ccc(Nc2c(-c3ccco3)nc3ccccn23)cc1	-2	-0.3	0	113	105	i	0.97
4	Cc1noc(C)c1COC(=O)c1cccnc1Cl	-5	x	x	x	98	i	0.89
5	CCOC(=O)c1cccc(NC(=O)c2cnccn2)c1	-1	-0.7	x	x	80	i	0.93
6	O=C(COc1ccccc1)NCCSc1ccccc1	-3	-0.9	x	x	100	i	0.95
7	COc1ccc(C2NCCc3sccc32)cc1 (stereo unspecified)	0	x	x	x	102	i	0.99
8	Cc1noc(C)c1COC(=O)C1CCN(C(=O)c2ccc(Cl)cc2)CC1	-4	x	x	x	98	i	0.96
9	COc1ccc2c(Cl)c(C(N)=O)sc2c1	-4	-0.8	x	x	83	i	0.93
10	COCCNC(=O)C(c1ccco1)N(C(=O)Cn1nnc2ccccc21)c1cccc(C)c1C (stereo unspecified)	-1	-4.9	17	113	101	i	0.85
11	NS(=O)(=O)c1ccc(NC(=S)Nc2cc(Cl)c(Cl)cc2Cl)cc1	-9	-0.5	0	171	106	i	0.99
12	CN1CCC(N(C)C(=O)c2sc3cc(F)ccc3c2Cl)CC1	-7	x	x	x	104	i	0.76
13	O=C(NCc1ccccn1)Nc1cccc(Cl)c1	3	-1.7	x	x	134	i	0.86
14	c1ccc2sc(NCC3CCCO3)nc2c1 (stereo unspecified)	0	x	x	x	100	i	0.93
15	C=CCn1c(SCC(=O)Nc2cccc3ccccc23)nnc1-c1cnccn1	0	-1.1	-46	115	98	i	0.8
16	CCOC(=O)C1CCCN(C(=O)/C=C/c2ccc(OC)cc2)C1 (stereo unspecified)	0	x	-11	73	100	i	1.1
17	COc1cc(OC)c2ccc(=O)oc2c1C(CCN1CCCC(C)C1)c1ccc(N(C)C)cc1 (stereo unspecified)	x	x	x	x	105	i	0.84
18	CCN(CC)C(=O)CSc1nnc2nnc3cc(OC)ccc3n12	x	x	x	x	102	i	1.3
19	CC(C)[C@H](NC(=O)c1ccccc1)C(=O)O	6	x	x	x	99	i	1
20	CN1CCN(C(=S)NC(=O)/C=C/c2ccccc2)CC1	0	-1.3	-14	69	121	i	0.88
21	CC(C)(C)NC(=O)Cn1c(-c2nonc2N)nc2ccccc21	-5	0.5	-31	111	108	i	1.1
22	Cc1cccn2c(CN(C)C3CCOC3)c(C(=O)N3CCCCC3)nc12 (stereo unspecified)	0	x	x	x	107	i	1
23	CCC(C)N(C(=O)COC(=O)C1C(C(=O)OC)=C(C)NC(C)=C1C(=O)OC)C1CCS(=O)(=O)C1 (stereo unspecified)	-1	x	x	x	104	i	0.99
24	NC(=O)CSc1nc2ccccc2c(=O)n1Cc1ccco1	-6	-0.4	-277	42	105	i	1.1
25	CC1=C(C(=O)OCC(C)C)C23C(=O)c4ccccc4C2(O1)OC(N)=C3C#N (stereo unspecified)	7	0.1	-36	45	113	i	1.2
26	Cc1cccc(NC(=O)C2CC(=O)N/C(=N/N=C/c3ccco3)S2)c1 (stereo unspecified)	-1	-1.2	x	x	103	i	1
27	COC(=O)c1c(NC(=S)Nc2ccccc2Cl)sc(C)c1C	-13	-2.0	-3	102	98	i	0.99
28	Cc1nc2sc(C(=O)c3ccccc3)c(N)c2c2c1CCCC2	9	0.4	62	91	121	i	0.92
29	O=C(O)c1ccc(-c2cccc(Cl)c2)o1	0	-0.9	44	90	x	i	0.98
30	CCCCNC(=O)CCc1c(C)nc2nc(-c3cc(OC)cc(OC)c3)nn2c1C	4	-2.9	-4	140	94	x	x
31	COc1ccc(C(=O)NNC(=O)C(C)NC(=O)c2ccccc2NC(=O)c2ccco2)cc1 (stereo unspecified)	4	-2.3	-6	164	109	i	0.92
32	O=C(Nc1ccc(N2CCN(C(=O)c3ccccc3)CC2)cc1)c1ccc2c(c1)OCO2	-7	-1.6	31	87	110	i	0.88
33	CCOc1ccccc1C(=O)NC1CCN(Cc2nnnn2C2CCCC2)CC1	1	0.0	-16	161	102	i	0.83
34	COc1cccc(/C=N/n2c(=O)[nH]c3ccccc32)c1OC	11	0.6	33	113	100	i	0.99
35	CC(=O)Nc1ccc(-c2csc(Nc3cccc(C)n3)n2)cc1	-10	x	x	x	106	i	0.87
36	OC(CNCc1ccc2c(c1)OCO2)COc1ccc(F)cc1 (stereo unspecified)	x	x	x	x	104	i	0.93
37	Cc1cc(C)nc(SCC(=O)NNC(=O)c2ccccc2C)n1	-7	x	x	x	103	i	1
38	O=C(NC(=S)Nc1ccc(O)cc1)c1ccccc1Cl	-1	x	7	83	101	i	0.94
39	O=C(O)c1ccc(CSc2nc(-c3ccccc3)cc(C(F)(F)F)n2)cc1	-8	-1.4	-56	102	104	i	0.85
40	Cc1ccc(C(=O)C2=C(O)C(=O)N(CCCn3ccnc3)C2c2ccc(OC(C)C)cc2)o1 (stereo unspecified)	0	-0.9	67	84	96	i	0.86
41	CCC(=O)NCCc1nc2cc(NC(=O)c3cccs3)ccc2n1C	-7	x	x	x	103	i	0.98
42	Cc1nn(C(C)C)c(C)c1CN1CCCC(CCC(=O)NCc2ccccc2F)C1 (stereo unspecified)	-1	x	x	x	101	i	1.1
43	CCCc1cc(=O)[nH]c(SCc2ccccc2Cl)n1	1	-0.9	17	58	121	i	0.74
44	O=C(CCl)Nc1nc(-c2ccco2)c(-c2ccco2)s1	-6	-1.5	35	64	105	i	1.1
45	COc1ccc(N2C(=O)C(Cl)=C(Nc3c(C)n(C)n(-c4ccccc4)c3=O)C2=O)cc1	-6	-0.8	x	x	94	i	0.8
46	O=C(Nc1ccc(F)cc1F)c1csc(-c2ccccc2)n1	-4	x	x	x	104	i	1
47	[O-][n+]1ccc(C2CC2)cc1	-16	-0.4	x	x	110	i	1
48	O=c1oc2cc(O)ccc2c2ccccc12	0	1.1	14	135	104	i	0.94
49	CCCCOC(=O)/C(=C/c1cn(C)c2ccccc12)NC(=O)c1ccc(OC)cc1	3	0.5	x	x	104	i	0.93
50	CCN(CC)CCC(C)OC(c1ccccc1)c1ccccc1 (stereo unspecified)	8	x	-54	118	103	i	0.81
51	Cc1n[nH]c(C)c1N=Nc1cc(Cl)ccc1Cl	8	-1.5	-4	87	60	i	0.85
52	CCCCS(=O)c1snnc1C (stereo unspecified)	3	x	17	148	103	i	1.1
53	C/C(=N\NC(=S)NC(C)C)c1ccco1	-1	x	x	x	99	i	0.94
54	Cc1c(CC(=O)O)c(=O)oc2cc(OCc3nn[nH]n3)ccc12	-1	0.2	-14	153	101	i	1
55	CN(C)S(=O)(=O)c1ccc2c(c1)nc(CCC(=O)O)n2C	-2	x	0	91	108	i	1.2
56	CCOC(=O)c1cc(-c2ccc(N3CCOCC3)cc2)nn1-c1ccc(F)cc1F	-4	-2.3	6	118	35	i	0.91
57	O=C(COC(=O)c1ccccn1)Nc1cccc(Cl)c1	-4	-1.2	14	98	105	i	0.93
58	Cc1nn(-c2ccccc2)c(Cl)c1/C=C1\SC(=S)N(CCCCCC(=O)O)C1=O	x	x	x	x	96	i	0.77
59	CCS(=O)(=O)c1ccc2c(c1)NC(=O)C(CCO)O2 (stereo unspecified)	-7	x	x	x	99	i	1.1
60	Cc1cc(-n2c(C)cc(C(=O)CSc3nnnn3-c3ccc(Cl)cc3)c2C)no1	-1	-0.6	-100	118	96	i	0.74

Next section.
no.	Molecule	PKD1 inh	GALR2 ag	INS promoter inh	INS promoter inh cell count	RGS16-Gao	HSV replic up	HSV replic up primary fold
61	Cc1ccc(NC(=O)C2CC(=O)n3ncnc3N2)cc1 (stereo unspecified)	1	-1.1	-39	97	104	i	0.96
62	CCCS(=O)(=O)c1nc(S(=O)(=O)c2ccc(C)cc2)c(NCCCN(C)C)s1	2	x	27	94	102	i	1
63	COc1ccccc1OC(C)C(=O)NNC(=S)NC1CCCC1 (stereo unspecified)	-3	x	17	104	96	i	1.1
64	O=C(CSc1ccccn1)N/N=C/c1cccc([N+](=O)[O-])c1	5	-0.1	-11	66	107	i	1
65	COc1ccc(NC(=O)COC(=O)c2cc(SC)ccc2Cl)c(OC)c1	-9	0.5	19	88	26	i	0.98
66	CCCCSCCCNC(=O)Nc1ccc(CC)cc1	-6	x	55	45	102	i	0.95
67	Cc1cc(C)n2nc(/C(C#N)=C/c3ccccn3)c(C#N)c2n1	-10	x	-48	79	100	i	0.7
68	Cc1ccc2[nH]c3c(c2c1)CN(C(=O)CN1c2ccc(F)cc2CCC1C)CC3 (stereo unspecified)	-4	-0.7	8	35	101	i	0.93
69	COc1ccc(C(O)P(=O)(OCC(C)C)OCC(C)C)c(OC)c1 (stereo unspecified)	-7	0.1	-32	80	40	i	1.1
70	CCOC(=O)c1ccoc1CSCc1ccc(C(=O)OC)o1	-5	-0.4	14	112	102	i	1.2
71	CS(=O)(=O)N1CCN(c2ccc(NC(=S)NC(=O)c3cccs3)cc2)CC1	-7	x	x	x	103	i	0.96
72	O=c1[nH]c(NCc2ccccc2)nc2c1CCCC2	-6	-0.4	-11	161	100	i	0.96

Two of these compounds, reformatted.
Under each structure: PKD1 inh | GALR2 ag | INS promoter inh | INS promoter inh cell count | RGS16-Gao | HSV replic up | HSV replic up primary fold
(64) O=C(CSc1ccccn1)N/N=C/c1cccc([N+](=O)[O-])c1
→ 5 | -0.1 | -11 | 66 | 107 | i | 1
(72) O=c1[nH]c(NCc2ccccc2)nc2c1CCCC2
→ -6 | -0.4 | -11 | 161 | 100 | i | 0.96

Among those listed so far, ten have a furan ring, fused or not.
no.	Molecule	PKD1 inh	GALR2 ag	INS promoter inh	INS promoter inh cell count	RGS16-Gao	HSV replic up	HSV replic up primary fold
3	Fc1ccc(Nc2c(-c3ccco3)nc3ccccn23)cc1	-2	-0.3	0	113	105	i	0.97
10	COCCNC(=O)C(c1ccco1)N(C(=O)Cn1nnc2ccccc21)c1cccc(C)c1C (stereo unspecified)	-1	-4.9	17	113	101	i	0.85
24	NC(=O)CSc1nc2ccccc2c(=O)n1Cc1ccco1	-6	-0.4	-277	42	105	i	1.1
26	Cc1cccc(NC(=O)C2CC(=O)N/C(=N/N=C/c3ccco3)S2)c1 (stereo unspecified)	-1	-1.2	x	x	103	i	1
29	O=C(O)c1ccc(-c2cccc(Cl)c2)o1	0	-0.9	44	90	x	i	0.98
31	COc1ccc(C(=O)NNC(=O)C(C)NC(=O)c2ccccc2NC(=O)c2ccco2)cc1 (stereo unspecified)	4	-2.3	-6	164	109	i	0.92
40	Cc1ccc(C(=O)C2=C(O)C(=O)N(CCCn3ccnc3)C2c2ccc(OC(C)C)cc2)o1 (stereo unspecified)	0	-0.9	67	84	96	i	0.86
44	O=C(CCl)Nc1nc(-c2ccco2)c(-c2ccco2)s1	-6	-1.5	35	64	105	i	1.1
53	C/C(=N\NC(=S)NC(C)C)c1ccco1	-1	x	x	x	99	i	0.94
70	CCOC(=O)c1ccoc1CSCc1ccc(C(=O)OC)o1	-5	-0.4	14	112	102	i	1.2
